# Screening data deposited in PubChem by National Center for Advancing Translational Sciences (NCATS).
# 2A Renilla – FMDV 2A StopGo reporter, Renilla signal; HEK cells with a luciferase reporter of 2A StopGo recoding; Potency, µM (series often up to 57.5 µM), without a hit: at the top dose signal change, negative = less light; 120,000 tested, 0.32% active; active means well fitted falling curve with a large enough effect; inconclusive means small, poorly fitted or top-dose-only effect; inactive means no such curve, though single readings can be large or run the other way; further: nearly all actives have a fitted effect of over 55% in size; overnight with compound
# StopGo FLuc – FMDV 2A StopGo reporter, firefly signal; HEK cells with a luciferase reporter of 2A StopGo recoding; 120,000 tested, 0.23% active; Potency, µM (top dose mostly 57.5 µM), for the others: at the top dose signal change, negative = less light; active = well fitted falling curve with a large enough effect; inconclusive = small, poorly fitted or top-dose-only effect; inactive = no such curve, though single readings can be large or run the other way; further: nearly all actives have a fitted effect of over 60% in size; overnight with compound
# * = called active by the depositor; ? = inconclusive; & = joins results of further samples; [ ] = another dose, or the depositor's remark. On the % scale 0 is the no-effect control and ±100 the full control effect; potency means the concentration at half of the fitted maximal effect. A portion of the library, so the mix of outcomes need not match the whole.
SMILES,2A Renilla,StopGo FLuc
Cc1cc(C)c(-c2csc(NC(=O)Cn3ncc4ccccc4c3=O)n2)c(C)c1,1.8%,5.6%
COc1cc(NC(=O)Cc2nc(-c3cccs3)oc2C)cc(OC)c1,10.1%,14.8%
CN(c1ccccc1)S(=O)(=O)c1ccc(NC(=O)c2nc(S(C)(=O)=O)ncc2Cl)cc1,10.1%,?
Cc1cc(C[N+](C)(C)C)oc1C,5.7%,-6.3%
O=C(COc1ccccc1)Nc1c(C(=O)N2CCN(c3ccc(F)cc3)CC2)oc2ccccc12,166.6%[activator],-2.5%
COc1ccc2c(C)c(CCC(=O)Nc3ccc(F)c(F)c3)c(=O)oc2c1,-3.3%,-8.2%
O=C(O)CCSCc1ccc(Cl)cc1,10.7%,6.3%
Cc1cc(C(=O)OCC(=O)Nc2cccc(F)c2)c(C)n1C1CC1,-0.4%,0.9%
CCC(CO)NS(=O)(=O)c1cc(C)c(Cl)cc1Cl (stereo not given),35.0%[activator][1.06 µM],0.0%
O=C(O)/C=C/c1ccc(F)cc1F,5.4%,0.0%
CCN(c1cc(C)cc(C)c1)S(=O)(=O)c1nnc(NC(=O)c2cccs2)s1,103.5%[activator],-12.6%
Cc1noc2ncnc(NCc3cccc(Cl)c3)c12,?,-20.9%
COCCn1c(C)cc(C(=O)CSc2nc3ccccc3[nH]2)c1C,-22.5%,-32.8%
COc1ccc(C(=O)/C=C/c2c(C)cc(C)cc2C)cc1,-2.6%,0.0%
O=C(Nc1ccc2oc(-c3ccncc3)nc2c1)c1ccc(Cl)cc1Cl,?,?
COC(=O)c1ccc(C(=O)OC)c(NS(=O)(=O)c2c(C)cc(C)cc2C)c1,0.2%,6.3%
COc1ccc(Cl)cc1NC(=O)C(C)OC(=O)c1cc(CO)oc1C (stereo not given),32.8%[activator],-10.2%
CCN(Cc1ccccc1)CC(O)COCc1ccc(OC)c(OC)c1 (stereo not given),6.9%,5.0%
O=c1[nH]c(=O)n(Cc2ccco2)c2nccc(-c3ccc(-c4ccccc4)cc3)c12,-2.8%,0.8%
CCCc1cc(=O)oc2c(C)c(OCC(=O)NCc3cccnc3)ccc12,-2.7%,-9.0%
COc1ccccc1C1=NOC(C(=O)Nc2ccc(OC(F)(F)F)cc2)C1 (stereo not given),51.8%[activator],5.9%
Cc1ccc(S(=O)(=O)NC2(C(F)(F)F)NC(=O)N(CCc3ccccc3)C2=O)cc1 (stereo not given),-10.2%,-10.8%
CN(C)c1oc(-c2ccccc2Cl)nc1S(=O)(=O)c1ccc2c(c1)OCCO2,91.6%[activator],13.0%
O=C(COc1ccc(Cl)cc1)N1CCC(c2nc3ccccc3o2)CC1,1.9%,19.1%
CCN(Cc1ccccc1)C(=O)Cn1c(=O)n(-c2ccc(Cl)cc2)c(=O)c2c(C)c(C)sc21,19.9%,-11.1%
O=C(CCc1ncc(-c2c(F)cccc2F)o1)N1CCSCC1,19.9%,147.1%[activator]
CC(C)c1nn2c(=O)cc(COC(=O)c3cccs3)nc2s1,-19.1%,-18.9%
O=S1(=O)c2ccccc2N(Cc2ccc(Cl)cc2F)c2ccccc21,-6.2%,-13.2%
CCCc1cc(=O)oc2cc(OCC(=O)OC(C)(C)C)ccc12,15.5%,99.4%[activator]
Cc1ccc(N2C(=O)CN(S(=O)(=O)c3ccc(C)cc3)CC2(C)C(=O)NCCC(C)C)cc1 (stereo not given),5.6%,0.4%
Cc1ccc(Cl)cc1NC(=O)Cn1c(=O)n(CCC(=O)N2CCc3ccccc3C2)c(=O)c2ccccc21,-4.9%,-11.1%
Cc1ccccc1CN1c2ccccc2-c2nc(SCC(=O)c3ccccc3)ncc2S1(=O)=O,-9.9%,-12.2%
COc1ccc(OC(=O)CCCOc2ccc(Cl)cc2Cl)cc1,23.3%,0.0%
COc1ccc(C(=O)/C(C#N)=C\c2cc(Br)c(O)c(OC)c2)cc1,29.0%,0.0%
CCC(CC)C(CNC(=O)c1ccc(Cl)cc1F)N1CCOCC1 (stereo not given),8.3%,6.3%
CCOC(=O)c1[nH]c(C)c(CCC(=O)N2CCN(c3cccc(OC)c3)CC2)c1C,-4.7%,-7.6%
Cn1nc(C(=O)OCC(=O)Nc2ccc(Cl)cn2)c2ccccc2c1=O,-3.5%,-1.3%
CCn1cc(C(=O)N2CCN(CC(=O)NCc3ccccc3)CC2)c2ccccc21,-5.1%,-12.5%
CCOc1cc(C#N)ccc1OCc1ccccc1,10.5%,18.9%
CCOc1ccc(-c2nc(C#N)c(NCCCN(C)C)o2)cc1,8.7%,22.5%

# Entries shown so far with a cyano group, in the order listed:
SMILES,2A Renilla,StopGo FLuc
COc1ccc(C(=O)/C(C#N)=C\c2cc(Br)c(O)c(OC)c2)cc1,29.0%,0.0%
CCOc1cc(C#N)ccc1OCc1ccccc1,10.5%,18.9%
CCOc1ccc(-c2nc(C#N)c(NCCCN(C)C)o2)cc1,8.7%,22.5%

# (further entries)
SMILES,2A Renilla,StopGo FLuc
C=C(C)Cn1c(SCC(=O)Nc2ccccc2C)nc2sc3c(c2c1=O)CCCC3,-1.3%,0.0%
CCCCCn1c(CCCNC(=O)c2ccccc2)nc2ccccc21,-15.8%,-4.9%
Cn1cc(C(C(=O)O)N2CCN(c3ncc(Br)cn3)CC2)c2cc(C(=O)O)ccc21 (stereo not given),-3.3%,0.3%
COc1ccc(C2N3CC4(C)CN2CC(c2ccccc2)(C3)C4=O)cc1OC (stereo not given),-5.4%,-9.0%
CC(OC(=O)c1cccc(-n2cnnn2)c1)C(=O)Nc1ccc(N2CCOCC2)cc1 (stereo not given),4.3%,0.0%
Cn1c2ccccc2c2c(C(=O)N3CCN(c4ccc(F)cc4)CC3)cn(C3CCCCC3)c(=O)c21,187.3%[activator],4.6%
CCn1c(=NC(=O)c2ccc3c(c2)OCCO3)sc2c(C)ccc(OC)c21,-8.0%,29.4%
CSc1ccc(Cl)c(C(=O)N2CCN(Cc3cc(=O)n4ccsc4n3)CC2)c1,3.3%,2.9%
COc1ccccc1CN(C)C(=O)Cc1nn(C)c(=O)c2ccccc12,?,?
Cc1[nH]c2ccccc2c1C(=O)OC(C)C(N)=O (stereo not given),6.9%,0.3%
Cc1ccc(C)c(-c2cc(C(=O)Nc3cc(C)on3)c3ccccc3n2)c1,-8.6%,-13.5%
O=C(CC1C(=O)N(c2ccc(F)cc2)C(=O)N1Cc1ccc2c(c1)OCO2)Nc1ccc(Cl)cc1 (stereo not given),295.4%[activator],-5.5%
C=CCNC(=O)C(=O)Nc1ccc(Cl)c(C(F)(F)F)c1,11.7%,46.2%[activator]
Cc1ccc(NCc2ccco2)cc1C,-1.1%[1.06 µM],28.7%
Cc1ccc(C(=O)NC(c2cccnc2)c2cc(C)ccc2C)cc1 (stereo not given),21.2%,14.1%
N#Cc1ccc(Oc2c(-c3ccccc3)cccc2-c2ccccc2)cc1C#N,-25.6%,-16.6%
COc1cccc(SCC(=O)c2ccc3c(c2)NC(=O)CO3)c1,18.8%,33.8%[activator]
COc1ccc(OC)c(C2N=C(N)Nc3nc4ccccc4n32)c1 (stereo not given),-20.5%,-26.1%
Cc1ccc(NCC(=O)Nc2cc(C(F)(F)F)ccc2-n2cncn2)c(F)c1,18.0%,-18.7%
COc1ccc(NC(=O)CSc2nc3ccccc3n2CC(=O)N2CCCCC2C)cc1 (stereo not given),3.0%,-15.9%
CCC(CC)NC(=O)CCC(=O)c1ccc2c(c1)OCCCO2,-9.1%,0.0%
Cc1ccc(NC(=O)CSc2nc3c(c(=O)[nH]2)CN(Cc2ccccc2)CC3)cc1Cl,22.9%,-14.3%
Cc1nnc(NC(=O)CCS(=O)(=O)Cc2ccccc2)s1,-6.4%,-7.7%
Cc1cccc(NC(=O)C(Sc2ccccc2)c2ccccc2)c1C (stereo not given),49.1%[activator],-0.8%
CSc1ccccc1NC(=O)c1ccc(-c2ccccc2)cc1,34.0%[activator],219.6%[activator]
COc1ccccc1NC(=O)CCc1ncc(-c2ccc(Cl)cc2)o1,-8.1%,9.6%
O=C(c1cc(Br)c[nH]1)C(Cl)(Cl)Cl,41.6%[activator],13.6%
Nc1ncc(S(=O)(=O)NCc2ccc(F)cc2)cn1,-3.9%,-10.9%
Cc1ccc(NC(=O)c2cc(S(=O)(=O)NC3CCCCC3)ccc2F)cc1Cl,105.9%[activator],0.0%
COc1ccc(-c2c(NC(=O)c3cccs3)oc3ccccc3c2=O)cc1,-6.3%,11.9%
CCN(CC)S(=O)(=O)c1ccc(=O)n(Cc2cc(=O)oc3c(C)c(C)ccc23)c1,-30.8%,45.6%[activator]
CCCn1c2ccccc2c2cnn(CC(=O)N(CC)c3cc(C)ccc3C)c(=O)c21,5.0%,-13.0%
COc1cc(OC)cc(C(=O)Nc2cccc(-c3cn4cccnc4n3)c2)c1,0.0%,0.0%
N#Cc1cccc(NC(=O)Cc2ccc3c(c2)CCC3)c1,127.4%[activator],0.0%
C/C(=N/O)c1ccc2c(c1)NC(=O)CO2,-3.2%,16.5%
CCC(C)c1ccc(NC(=O)CCc2ncc(-c3ccccc3F)o2)cc1 (stereo not given),0.0%,16.1%
O=C(C1CC1)N1CC=C(c2c[nH]c3ccccc23)CC1,-1.0%,165.4%[activator]
CCc1nc2sc3c(N4CCCCC4)ncnc3c2c2c1CCCC2,-1.3%,-2.0%
Cc1ccc(NC(=O)CC2C(=O)Nc3nc(-c4ccccc4)nn32)cc1C (stereo not given),2.6%,4.5%
CC(C)c1ccc(CNCCSc2nnnn2C)cc1,-4.3%,-10.2%

# Structures from the list above that contain a COOH group (3):
SMILES,2A Renilla,StopGo FLuc
O=C(O)CCSCc1ccc(Cl)cc1,10.7%,6.3%
O=C(O)/C=C/c1ccc(F)cc1F,5.4%,0.0%
Cn1cc(C(C(=O)O)N2CCN(c3ncc(Br)cn3)CC2)c2cc(C(=O)O)ccc21 (stereo not given),-3.3%,0.3%

# Following part.
SMILES,2A Renilla,StopGo FLuc
CCN(CC)c1ccc(C2SCc3cc(C)c(C)cc3CS2)cc1,2.0%,14.7%
CNC(=O)c1cc(=O)n(CC(=O)Nc2cccc(C)c2)c2ccccc12,-10.3%,11.6%
COc1cccc(C2C3=C(CC(C)(C)CC3=O)Nc3nc(-c4cc(OC)c(OC)c(OC)c4)nn32)c1 (stereo not given),13.0%,7.3%
Cc1cc(C)c(OC(=O)c2cccc(C#N)c2)c(C)c1,1.9%,6.4%
CCOC(=O)c1nc(-c2ccc(Br)o2)no1,-7.1%,-12.0%
COc1ccc(CCCc2nnc(SCC(=O)Nc3ccccc3F)o2)cc1C,7.9%&-6.4%,26.7%&19.2%
CCNC(=O)NC(=O)COC(=O)c1cc(-c2ccc(C)o2)nc2ccccc12,9.8%,141.9%[activator]
COC(=O)c1sc2ccccc2c1S(=O)(=O)N1CCN(c2cc(C)ccc2C)CC1,33.2%[activator],18.2%
COc1ccccc1OC(=O)C1OC2OC(C)(C)OC2C2OC(C)(C)OC12 (stereo not given),12.6%,-4.6%
CCC(C)NC(=O)c1cc2c(Cl)nc3ccc(C)cc3c2s1 (stereo not given),2.8%,-7.3%
Cc1ccc(-c2c(C(=O)N(C)Cc3ccccc3)oc(=O)c3ccccc23)cc1,195.4%[activator],9.1%
O=C(CCS(=O)Cc1cccc2ccccc12)Nc1ccccc1 (stereo not given),18.5%,-0.7%
CCOc1ccc(CCNC(=O)Cn2nc(C)n3c(cc4occc43)c2=O)cc1OCC,-15.4%,-15.8%
COc1ccc(-c2cn3c(n2)sc2cc(C(=O)NCc4ccccc4)ccc23)cc1,-4.0%,54.9%[activator]
CC(Oc1ccc(C(=O)c2ccc(F)cc2)cc1)C(=O)N1CCc2ccccc21 (stereo not given),53.7%[activator],10.4%
CCC(=O)Nc1ccccc1-c1nc2ccccc2n(Cc2cccc(Br)c2)c1=O,-15.0%,-23.6%
Cc1ccc(Nc2c(-c3ccc(N4CCOCC4)cc3)nc3ncccn23)c(C)c1,5.8%,15.1%
CC(=O)Nc1ccc(S(=O)(=O)Nc2cc(-c3cn4ccccc4n3)ccc2C)cc1,112.3%[activator],68.7%[activator]
COc1ccc(C(=O)Oc2cccc(C)c2C)cc1I,-2.1%,6.5%
COc1ccc(Cl)cc1NC(=O)C1CCCN(c2ccc3nncn3n2)C1 (stereo not given),-11.6%,-10.5%
CCOc1ccccc1NC(=O)N1CCc2cc(S(=O)(=O)N3CCC(C)CC3)ccc21,0.0%,-3.3%
Cc1ccc(Cl)cc1N1CCN(C(=O)c2cnc3c(-c4ccc(F)cc4)c(C)nn3c2C)CC1,-8.5%,-20.1%
Cc1ccc(S(=O)(=O)c2nnn(CC(=O)Nc3ccccc3C)c2N)cc1,-10.1%,-13.5%
CC(C)N(/C=C/C(=O)C(F)(F)F)C(C)C,-4.4%,-7.1%
Cc1cc(C)cc(OC(C)C(=O)Nc2ccc3nsnc3c2)c1 (stereo not given),13.1%,11.2%
CC/C=C(/C)C(=O)N1CCN(C(=O)c2cccs2)CC1,-3.6%,-14.0%
Cc1ccc(-n2nnnc2SCc2cc(Cl)c3c(c2)OCCCO3)cc1,?,?
O=c1c2ccccc2nc(/C=C\c2ccc(F)cc2)n1-c1ccccc1F,-11.3%,-12.0%
CC(C)CC(=O)Nc1nc2nc(-c3ccccc3)cc(=O)n2[nH]1,0.5%,-0.2%
CC(C)NCc1ccco1,-5.0%,14.0%
CC(C)N1C(C(=O)Nc2ncccn2)=C(O)c2ccccc2S1(=O)=O,2.3%,5.6%
CCOC(=O)c1sc(NC(=O)C(NC(=O)c2ccc(F)cc2)C(C)C)nc1C (stereo not given),46.4%[activator],186.0%[activator]
CCC(CC)C(=O)Oc1ccc2c(=O)c(Oc3cccc(C)c3)coc2c1,17.4%,0.0%
